High-throughput results deposited in PubChem by several laboratories.
PrP 5UTR inh: inhibition of PrP 5' UTR reporter expression; cell-based PrP 5' UTR mRNA reporter, plate reader; inhibition, % (no concentration beside the values); actives 0.35% (n = 340,000); AID 488862, 2010;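 active = every replicate at 50% or more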;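 also: 0 = median of the neutral control wells; tested in H4 reporter cells; numbers are from one replicate; inactives centre near -14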
Mtb hypoxia inh: PubChem AID 1159583. M. tuberculosis hypoxia-regulated fluorescent reporter, fluorescence. fluorescence inhibition, % (concentration not given with the values). actives 0.1% (n = 300,000);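 active = 35 to 45% if threefold the growth effect, above 45% if 1.5-fold the growth effect; inactive = the rest, general growth blockers included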;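 also: wells of about 50 µL received 100 nL stock; 0% = vehicle wells and 100% = reference inhibitor wells; whole bacteria with a GFP reporter of the hypoxia response; strong numbers were not always called active; many hits fall short of the cut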
Bead autofluor: compound fluorescence in toxin protease inhibitor counterscreen; compound autofluorescence counterscreen, microsphere flow cytometry; hits give high values; fluorescence intensity (test concentration not listed); actives 3.1% (n = 360,000); AID 624483;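 active = at least 3 SD above the mean of all compounds, about 16000 in these data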;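 also: 100 nL of 1 mM stock went into each well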
BJeLR lethal: MLPCN primary cell-based screen for lethality selective to Ras in HRASV12 cells; actives 0.17% (n = 300,000); BJeLR (HRASV12) viability, CellTiter-Glo ATP luminescence, 48 h; reference of the scale not given here; inhibition, % (test concentration not listed);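 active = replicate mean above 50%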;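 also: 50 nL library stock added to about 25 µL; numbers are from one replicate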
RN4220 kill: growth inhibition of S. aureus RN4220, primary screen, OD600; AID 1259311, 2017; actives 0.33% (n = 330,000); 16 h; inhibition, % (no concentration beside the values);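 active = z-score of -3 or lower and OD600 up to 0.18 on both plates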;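 also: plate controls were untreated cells for no effect and reference antibiotic for full effect; stock transfer was 100 nL into about 80 µL; one replicate is shown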
Sa ugtP lethal: growth inhibition of ugtP-null S. aureus, primary screen, RN4220 ugtP deletion, OD600; 16 h; some inactives read as strong as hits; AID 1259309, 2017; actives 0.54% (n = 330,000); growth inhibition, % (concentration not given with the values);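 active = z-score under -3 and OD600 up to 0.15 on both plates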;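 also: plate controls were untreated wells for no effect and antibiotic for full effect; wells of about 80 µL received 100 nL stock; the first replicate is given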
Mtb hypoxia inh growth: second read-out of Mtb hypoxia inh, no call of its own (marks repeat the call); growth inhibition, %; measured here: M. tuberculosis growth (absorbance);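 0% = vehicle and 100% = reference antibiotic; read after six days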
Active calls of the source: *; · = no result given; & = joins results of further samples. Compounds as they come, and some 4% of all compounds hit somewhere here.

SMILES	PrP 5UTR inh	Mtb hypoxia inh	Mtb hypoxia inh growth	Bead autofluor	BJeLR lethal	RN4220 kill	Sa ugtP lethal
CC(=O)C1=C(C)NC(SCC(N)=O)=C(C#N)C1c1cccnc1 (stereo not given)	-14	2	6	5956	6	3.1	4
Cc1cc(C)c(NC(=O)C(C)Sc2nc3ccc(N4C(=O)c5ccccc5C4=O)cc3s2)c(C)c1 (stereo not given)	-9	6	3	16290*	7	3.6	10
O=C(Cn1cncc1-c1ccc([N+](=O)[O-])cc1)Nc1ccccc1F	-7	10	5	7884	-2	8.9	7
O=C(c1ccccc1)c1ccc(OCC(O)CNCc2cccc(Cl)c2)cc1 (stereo not given)	-12	4	11	3847	-1	-1.8	-10
CSc1ncc(C(=O)O)c(C)n1	-13	21	13	3794	2	5.2	1
COc1cccc(C(=O)Nc2ccc(C(=O)NCC(C)C)cc2)c1	-14	-3	12	2414	0	6.7	-1
Cc1ccccc1-n1nnnc1SCC(=O)NNC(=O)c1ccc(NC(=O)CC#N)cc1	·	11	3	·	·	0.6	1
CC1(C(=O)N(Cc2ccccc2)Cc2ccccc2)CC1(Br)Br (stereo not given)	-10	8	14	10704	5	-7.7	76
Cc1occc1C(=O)NN=Cc1cccs1	·	7	9	·	·	2.8	0
O=C(Nc1ccccc1)c1nnn(Cc2ccccc2)c1NC(=O)C(F)(F)F	-47	5	5	3207	1	15	9
Cc1ccc(Cl)cc1NC(=O)COC(=O)c1ccc(COc2ccc3c(C)cc(=O)oc3c2)cc1	·	1	-4	·	·	8.5	-5
Cc1c(NC(=S)NC(=O)Cc2ccccc2)cccc1C(=O)O	-16	4	5	21800*	3	1.4	5
COC(=O)C1=C(C)NC(C)=C(C(=O)OC)C1C(=O)OCc1nnc(-c2ccccc2)o1	4	1	5	4666	1	6.2	0
COc1ccc2c(CC(=O)OCC(=O)Nc3cc(C)c(C)cc3[N+](=O)[O-])coc2c1	-24	7	19	2696	-10	2.5	6
CC(C)c1ccc(NC(=O)c2ccccc2NC(=O)C2CCCCC2C(=O)O)cc1 (stereo not given)	-31	1	3	3399	3	1.9	-8
Cc1cc(C)nc(Sc2ccc(/C=C(\C#N)C(=O)Nc3ccccc3)o2)n1	-12	-8	-4	9064	-10	7.9	-6
COc1cccc(CN2CCCC(C(=O)c3ccccc3SC)C2)c1O (stereo not given)	-10	-1	9	4351	0	5.1	2
CC1CN=C(Nc2ccccc2)N1CC1CCCCCC1 (stereo not given)	·	6	8	·	·	4.5	-13
CC(NC(=O)CSc1nc2ccccc2c(=O)[nH]1)c1ccccc1 (stereo not given)	-21	-2	6	2742	1	-0.8	-2
COC(=O)c1cc(NC2c3ccccc3C(=O)N2CCN2CCOCC2)cc(C(=O)OC)c1 (stereo not given)	-12	1	2	5700	-12	6.1	2
CCOC(=O)c1oc2nc3c(cc2c1N)COC(C)(C)C3	-53	7	12	3761	-2	-1.8	-4
CCOC(=O)c1c(NC(NC(=O)C(C)C)C(Cl)(Cl)Cl)sc2c1CCC2 (stereo not given)	-5	18	0	2881	-1	17	-22
Cn1cnnc1SCC(=O)Nc1ccc2nc(SCc3cccc4ccccc34)sc2c1	-17	·	·	2653	3	11	-5
CC1(C)CC(=O)C=C(OC(=O)c2ccc(Cl)cc2)C1	1	-4	7	2408	0	6.5	-4
CCC(C)NC(=O)CSc1n[nH]c(-c2cc(Cl)ccc2OC)n1 (stereo not given)	-13	11	-3	4005	-5	5.4	7
O=C(COc1ccc(Cl)cc1)Nc1nnc(C2=COCCO2)o1	-27	7	4	4214	10	4.3	15
COC(=O)c1sccc1-c1ccc(C=NOCc2c(Cl)cccc2Cl)o1	·	13	11	·	·	0.6	60
Cc1cc(-c2nnc(SCC(=O)Nc3ccccc3Cl)n2C)no1	-22	0	3	2969	-3	2.0	10
COc1ccc(N2CCN(C(=O)c3cc4c(s3)-c3ccccc3S(=O)(=O)C4)CC2)cc1	-5	-3	-1	5815	6	4.4	9
COc1cc(OC)cc(-n2nnnc2SCC(=O)N2CCCC2)c1	-3	-9	11	11585	-4	2.6	4
Cc1cccc(N2CCN(C(=O)c3cn(C)c(=O)c4c3c3ccccc3n4C)CC2)c1C	-9	3	10	23203*	-5	-7.6	-13
O=C(c1cc(-c2ccccc2)nc2ccccc12)N1CCN(c2ccccc2O)CC1	-24	·	·	7424	4	·	·
O=C(N/N=C/c1c[nH]c2ccccc12)c1ccccc1	-25	·	·	3781	2	·	·
COc1ccc(CCNC(=O)COC(=O)CCC(=O)c2ccc(F)cc2)cc1	-16	8	9	3305	5	-0.5	6
C/C(=N/n1cnnc1)c1cccnc1	-9	·	·	15652	-7	·	·
Cc1cccc(OCC(=O)Nc2ccccc2C(=O)N2CCOCC2)c1	-28	-1	4	2182	9	2.1	1
C=CCSc1nnc(NC(=O)c2cccc(S(=O)(=O)N(C)c3ccccc3)c2)s1	-21	1	7	8404	9	22	3
CCc1nc2cc([N+](=O)[O-])c([N+](=O)[O-])cc2[nH]1	-16	4	2	10692	1	3.6	-3
COc1ccc(C2NC(=S)NC3=C2CCc2cc(OC)ccc23)cc1 (stereo not given)	-19	2	2	11535	18	9.6	-5
CCCC(C)NS(=O)(=O)c1ccccc1 (stereo not given)	-3	10	7	12923	0	4.3	-2

3 structures already listed, ordered by number of heavy atoms, rising.
SMILES	PrP 5UTR inh	Mtb hypoxia inh	Mtb hypoxia inh growth	Bead autofluor	BJeLR lethal	RN4220 kill	Sa ugtP lethal
Cc1c(NC(=S)NC(=O)Cc2ccccc2)cccc1C(=O)O	-16	4	5	21800*	3	1.4	5
O=C(Cn1cncc1-c1ccc([N+](=O)[O-])cc1)Nc1ccccc1F	-7	10	5	7884	-2	8.9	7
COc1ccc(CCNC(=O)COC(=O)CCC(=O)c2ccc(F)cc2)cc1	-16	8	9	3305	5	-0.5	6

Some values from the entries so far.
CCCC(C)NS(=O)(=O)c1ccccc1 (stereo not given) in Bead autofluor = 12923
CCc1nc2cc([N+](=O)[O-])c([N+](=O)[O-])cc2[nH]1 in PrP 5UTR inh = -16
COc1ccc(C2NC(=S)NC3=C2CCc2cc(OC)ccc23)cc1 (stereo not given) in PrP 5UTR inh = -19
Cc1cccc(OCC(=O)Nc2ccccc2C(=O)N2CCOCC2)c1 in RN4220 kill = 2.1
C=CCSc1nnc(NC(=O)c2cccc(S(=O)(=O)N(C)c3ccccc3)c2)s1 in PrP 5UTR inh = -21

Next section:
SMILES	PrP 5UTR inh	Mtb hypoxia inh	Mtb hypoxia inh growth	Bead autofluor	BJeLR lethal	RN4220 kill	Sa ugtP lethal
CCCn1c(N)c(C(=O)CN(C)CC(=O)Nc2ccccc2C(F)(F)F)c(=O)[nH]c1=O	-16	2	7	5331	·	2.2	3
COC(=O)c1c(C)noc1-c1ccc(Cl)cc1	-17	6	9	4704	-2	4.5	-1
CC(C)Cn1cnc2c(SCc3ccccc3)nc(N)nc21	-56	11	10	2870	·	3.4	4
COc1ccc(Sc2nc(-c3ccccc3)ncc2C(=O)O)cc1	-15	5	0	6843	·	16	-13
CCOC(=O)c1cc(=O)[nH]c2ccccc12	-16	1	7	3866	8	2.1	3
COc1cc2nc(SCc3ccc(Cl)cc3Cl)n(Cc3cccs3)c(=N)c2cc1OC	-21	3	9	20638*	1	12	-3
CCCCN(C(=O)c1cc(=O)[nH]c2ccccc12)c1c(N)n(CCCC)c(=O)[nH]c1=O	-16	7	3	5064	-2	-0.7	6
Cc1ccc(C2(C(F)(F)F)NC(=O)N3C(=C2C#N)Nc2ccccc23)cc1 (stereo not given)	-25	-6	5	8561	·	-1.6	-23
O=[N+]([O-])c1ccc(-c2nnc(-c3ccccc3)c(NCCCO)n2)cc1	-10	1	3	2354	-1	4.9	-1
O=C(Nc1ccc(F)cc1)NC1(C(=O)NCc2ccco2)CCCCC1	0	0	-1	16458*	5	-5.6	-8
Nc1nc(-c2ccccc2)[nH]c(=O)c1N=O	-20	11	-10	3816	-5	69	82
CC1CCc2c(sc(NC(=O)CSc3nc(N)cc(=O)[nH]3)c2C(N)=O)C1 (stereo not given)	-15	14	13	6833	·	0.8	1
O=C(COC(=O)COc1ccccc1)NCc1ccc2c(c1)OCO2	3	-2	2	3741	·	1.1	1
CCc1ccc(-n2c(O)c(/C=N/NC(=O)c3ccncc3)c(=O)[nH]c2=O)cc1	-15	8	9	2564	-9	3.3	3
CCOC(=O)C1CCCN(Cc2sccc2C)C1 (stereo not given)	-24	9	-4	6944	-5	7.5	16
Cc1nn(Cc2ccccc2Cl)c2sc(C(=O)NCCCn3ccnc3)cc12	0	4	6	4103	0	-0.1	5
COc1ccc(CN2C3CCC2CC(NC(=O)c2cccc(F)c2)C3)cc1 (stereo not given)	-20	-13	-5	3993	-4	0.0	4
OCC[C@@H]1C[C@@H](O)[C@H](O)[C@]2(OCc3ccccc32)O1	-29	·	·	4067	-8	·	·
CCOC(=O)CC(=O)Nc1cc(Cl)ccc1O	-18	·	·	5313	-5	5.2	-3
O=C(C1=C(O)C(=O)N(CCN2CCOCC2)C1c1cccnc1)c1cc2ccccc2o1 (stereo not given)	-21	3	3	19706*	·	1.6	4
COc1ccc(-c2nc(CS(=O)(=O)CC(=O)NCCc3ccc(C)cc3)c(C)o2)cc1	0	2	6	5578	-5	2.1	2
O=C(CCN1C(=O)/C(=C/c2cccs2)SC1=S)NNC(=O)c1cccc(O)c1	-5	11	8	4468	-14	-4.6	1
Cc1c(N=CN2CCOCC2)c(=O)n(C)c(=O)n1C	-22	·	·	2933	-11	-8.1	12
CC(C)(C)OC(=O)CC1CC=CCC(CC(=O)N(CCO)Cc2ccccc2)C(=O)N2CCCC2COC1=O (stereo not given)	·	7&14&-1&10&11	9&4&10&-1&-4	·	·	6.3&9.0&3.4&2.2&6.3	3&0&-6&0&1
CCn1c(SCC(=O)O)nnc1-c1cc2c(C)nn(-c3ccccc3)c2s1	-5	2	-4	7878	3	2.8	5
CCOC(=O)c1c(N)sc(C(=O)N2CCCC(C(N)=O)C2)c1C (stereo not given)	-5	·	·	2485	-9	·	·
Fc1ccc(NC(=S)N2CCN(C/C=C/c3ccccc3)CC2)c(F)c1	-3	16	-1	3321	4	0.6	0
COCc1[nH]nc2c1C1(CCC3(CC1)OCCO3)C(C#N)=C(N)O2	-15	14	4	9946	4	8.3	-5
O=C(C1CCOCC1)N1CCCC(N2CCN(c3cccc(Cl)c3)CC2)C1 (stereo not given)	3	1	17	5862	2	1.9	1
O=C(NN1C(=O)c2ccccc2NC1c1ccc([N+](=O)[O-])o1)c1ccccc1 (stereo not given)	-3	-7	-3	4441	-4	21	15
Cc1ccc(S(=O)(=O)NC(CCc2ccccc2)CC(=O)C(C)(C)C)cc1 (stereo not given)	·	19	15	·	·	7.6	9
CCOc1ccccc1NC(=O)Cn1c(=O)n(CCC(=O)NC2CCCC2)c(=O)c2ccccc21	-24	·	·	2562	0	0.7	-1
COc1ccc(NC2CCCN(C(=O)CCN3Cc4ccccc4C3=O)C2)cc1 (stereo not given)	-24	13	1	·	2	2.7	6
COC(=O)c1ccnc(SCC(=O)c2ccccc2)c1	-92	16	14	2434	7	24	21
O=C(c1ccco1)N(CCCN1CCOCC1)c1nc(-c2ccc(Cl)cc2)cs1	-12	11	8	10648	0	-6.0	-2
Cc1cc(C)n2nc(SCC(=O)NC(=O)c3ccccc3)nc2n1	-83	0	2	3563	·	2.4	1
Cc1ccccc1C(=O)OC1OC(=O)C(Cl)=C1Nc1ccc(C(=O)O)cc1 (stereo not given)	-19	6	9	3215	-2	1.6	3
C=CCSc1nc(N)c(C#N)c(-c2ccccc2)c1C#N	2	7	-1	21076*	1	5.3	2
Cc1ccc(NC(=O)CN(c2ccc3c(c2)OCO3)S(=O)(=O)c2c(C)n[nH]c2C)cc1	-13	·	·	5626	-1	4.3	15
CCCCOc1ccc(C=NNC(=S)Nc2cccc(C)c2C)cc1	·	2	6	·	·	0.9	19
COc1ccc(-c2nnn(Cc3nc(N)nc(N4CCCCC4)n3)n2)cc1	-23	11	3	4609	-7	-1.6	7
O=C(CN1CCOCC1)Nc1cccc(S(=O)(=O)N2CCCCCC2)c1	-23	7	7	3310	15	3.5	16
